MLL AF4-AF9 inh – blocks AF4 peptide binding to human AF9; AID 651704; P42568; inhibition, % at 10 µM; hit rate 0.47% among 350,000; AlphaScreen, biotin-AF4 peptide binding to FLAG-AF9;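 active = every replicate reaching a set inhibition limit, whatever the replicate mean, cut at about 25% in these data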;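 also: 0% = plate neutral control median and 100% = total signal loss; the record names both 10 and 1 µM as test concentration; the first replicate is given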
Target sequence (P42568 whole entry, looked up): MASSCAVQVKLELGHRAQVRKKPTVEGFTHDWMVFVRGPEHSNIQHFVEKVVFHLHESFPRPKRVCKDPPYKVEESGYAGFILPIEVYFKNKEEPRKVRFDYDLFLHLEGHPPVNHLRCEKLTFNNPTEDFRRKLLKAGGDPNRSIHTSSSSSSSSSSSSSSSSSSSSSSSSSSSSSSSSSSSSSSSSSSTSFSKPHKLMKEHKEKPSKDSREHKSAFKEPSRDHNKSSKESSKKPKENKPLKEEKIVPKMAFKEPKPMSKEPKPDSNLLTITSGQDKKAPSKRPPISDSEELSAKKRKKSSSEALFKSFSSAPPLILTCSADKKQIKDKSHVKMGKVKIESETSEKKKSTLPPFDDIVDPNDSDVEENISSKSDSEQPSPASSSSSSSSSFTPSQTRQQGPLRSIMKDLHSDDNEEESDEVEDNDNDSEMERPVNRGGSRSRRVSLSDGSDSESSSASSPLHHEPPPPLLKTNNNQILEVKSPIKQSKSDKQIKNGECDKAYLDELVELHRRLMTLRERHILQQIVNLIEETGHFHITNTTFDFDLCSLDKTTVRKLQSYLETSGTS
rRNA inh HTS – inhibitors of bacterial rRNA selective over humanized ribosomes. hit rate 1.6% among 350,000. GFP signal change (wild-type ribosome), % (test concentration not listed). E. coli WT GFP vs humanized-ribosome RFP mutants, fluorescence, 24 h; hits give low values; DMSO median 0, no signal -100. AID 720706;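 active = significant combined selectivity score with lowered wild-type GFP, culture density cut under 30%, mutant RFP and density less affected; inactive = any of these conditions unmet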; also: one replicate is shown; some compounds called inactive have numbers as strong as hits
Vif A3G – HIV-1 Vif–A3G interaction blockers – biochemical, TR-FRET, GST-Vif 1-94, biotin-A3G peptide, dose response retest, primary screen (AID 1117319); TR-FRET GST-Vif / biotin-A3G peptide binding; higher % means a stronger effect; test concentration not given here; strong numbers were not always called active; one-dose inhibition, %; IC50 in µM for titrated hits; hit rate 0.57% among 260,000;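 active = above the screen mean plus three standard deviations and confirmed in dose response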;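 also: Vif residues 1-94 fused to GST binding biotinylated APOBEC3G peptide 110-148; 0% = full assay without inhibitor and 100% = GST in place of GST-Vif; retest series ran down from 100 µM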
rRNA inh HTS OD600 – second read-out of rRNA inh HTS, no call of its own (marks repeat the call); OD600 change, %; measured here: OD600 growth;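 optical density of the mix in the first replicate; 0 = DMSO median and -100 = no signal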
rRNA inh HTS RFP – second read-out of rRNA inh HTS, no call of its own (marks repeat the call); RFP signal change, %; measured here: RFP humanized mutant strains;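 first replicate; 0 = DMSO median and -100 = no signal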
Numbers without * were called inactive; & = joins results of further samples; ! = not confirmed by another sample.

The first 13 entries as a preview:
Field names – A = MLL AF4-AF9 inh; B = rRNA inh HTS; C = rRNA inh HTS OD600; D = rRNA inh HTS RFP; E = Vif A3G
ON=C1C2CC=C(c3ccccc3)C1CCC2 (configuration not stated)
  A = 2.5 | B = -43 | C = -44 | D = -6.0 | E = 1%

CCOc1ccc(NS(=O)(=O)c2cc(C(=O)N3CCN(c4ccccc4O)CC3)ccc2Cl)cc1
  A = -0.4 | B = -14 | C = -18 | D = 0.1 | E = 1%

COc1ccc(CNC(=O)CCc2ccc(S(=O)(=O)N3CCCCCC3)cc2)cc1OC
  A = -0.3 | B = -2 | C = -10 | D = 1.2 | E = -4%

CN(C)c1ccc(C=c2c3cc([N+](=O)[O-])ccc3n3c2cc(-c2ccccc2)[n+]3C)cc1
  A = 55* | B = -5 | C = -4 | D = 53 | E = 3.6µM*

CCOC(=O)C1=C(COC(=O)c2ccc(C)c(S(=O)(=O)N3CCOCC3)c2)NC(=O)NC1C (configuration not stated)
  A = -3.7 | B = 0 | C = -4 | D = -0.2 | E = 3%

Cn1c(=O)c2c(ncn2CC(=O)OCC(=O)NCCc2ccccc2)n(C)c1=O
  A = 5.7 | B = 6 | C = 9 | D = -0.7 | E = 0%

COc1ccc(CCN2CC(C(=O)NCc3ccon3)CCC2=O)cc1 (configuration not stated)
  A = 1.2 | B = 10 | C = 14 | D = 0.1 | E = 2%

C[C@H]1CN([C@@H](C)CO)C(=O)CCCn2nncc2CO[C@@H]1CN(C)Cc1ccccc1C(F)(F)F
  A = 3.4&-0.4 | B = -18*! | C = -13*! | D = 3.2*! | E = 0%

COC(=O)C[C@@H]1C[C@H]2c3cc(NC(=O)CC4CC4)ccc3O[C@H]2[C@@H](CO)O1
  A = -1.1&-3.9 | B = 7&3 | C = 11&9 | D = 2.6&-3.9 | E = 1%

Cc1ccc(S(=O)(=O)N2C[C@@H](C)[C@]3(C2)[C@H](O)[C@H](OC(=O)NCc2ccccc2F)C[C@H]2C(=O)N(c4ccccc4)C(=O)[C@H]23)cc1
  A = -3.2 | B = -6 | C = -3 | D = -3.0 | E = 5%

Cc1ccc(C(=O)C=CC=Cc2ccccc2)cc1
  A = -0.7 | B = -5 | C = 2 | D = 2.6 | E = 0%

Cc1onc(-c2c(F)cccc2Cl)c1C(=O)N1CCCC1
  A = 1.8 | B = 7 | C = 11 | D = -0.3 | E = 7%

CC(C)(C)c1ccc(C(=O)NCCC(=O)NCc2ccc(F)cc2)cc1
  A = -1.9 | B = 0 | C = 3 | D = -3.0 | E = -3%

The whole of this part (from the top)
Field names – A = MLL AF4-AF9 inh; B = rRNA inh HTS; C = rRNA inh HTS OD600; D = rRNA inh HTS RFP; E = Vif A3G
ON=C1C2CC=C(c3ccccc3)C1CCC2 (configuration not stated)
  A = 2.5 | B = -43 | C = -44 | D = -6.0 | E = 1%

CCOc1ccc(NS(=O)(=O)c2cc(C(=O)N3CCN(c4ccccc4O)CC3)ccc2Cl)cc1
  A = -0.4 | B = -14 | C = -18 | D = 0.1 | E = 1%

COc1ccc(CNC(=O)CCc2ccc(S(=O)(=O)N3CCCCCC3)cc2)cc1OC
  A = -0.3 | B = -2 | C = -10 | D = 1.2 | E = -4%

CN(C)c1ccc(C=c2c3cc([N+](=O)[O-])ccc3n3c2cc(-c2ccccc2)[n+]3C)cc1
  A = 55* | B = -5 | C = -4 | D = 53 | E = 3.6µM*

CCOC(=O)C1=C(COC(=O)c2ccc(C)c(S(=O)(=O)N3CCOCC3)c2)NC(=O)NC1C (configuration not stated)
  A = -3.7 | B = 0 | C = -4 | D = -0.2 | E = 3%

Cn1c(=O)c2c(ncn2CC(=O)OCC(=O)NCCc2ccccc2)n(C)c1=O
  A = 5.7 | B = 6 | C = 9 | D = -0.7 | E = 0%

COc1ccc(CCN2CC(C(=O)NCc3ccon3)CCC2=O)cc1 (configuration not stated)
  A = 1.2 | B = 10 | C = 14 | D = 0.1 | E = 2%

C[C@H]1CN([C@@H](C)CO)C(=O)CCCn2nncc2CO[C@@H]1CN(C)Cc1ccccc1C(F)(F)F
  A = 3.4&-0.4 | B = -18*! | C = -13*! | D = 3.2*! | E = 0%

COC(=O)C[C@@H]1C[C@H]2c3cc(NC(=O)CC4CC4)ccc3O[C@H]2[C@@H](CO)O1
  A = -1.1&-3.9 | B = 7&3 | C = 11&9 | D = 2.6&-3.9 | E = 1%

Cc1ccc(S(=O)(=O)N2C[C@@H](C)[C@]3(C2)[C@H](O)[C@H](OC(=O)NCc2ccccc2F)C[C@H]2C(=O)N(c4ccccc4)C(=O)[C@H]23)cc1
  A = -3.2 | B = -6 | C = -3 | D = -3.0 | E = 5%

Cc1ccc(C(=O)C=CC=Cc2ccccc2)cc1
  A = -0.7 | B = -5 | C = 2 | D = 2.6 | E = 0%

Cc1onc(-c2c(F)cccc2Cl)c1C(=O)N1CCCC1
  A = 1.8 | B = 7 | C = 11 | D = -0.3 | E = 7%

CC(C)(C)c1ccc(C(=O)NCCC(=O)NCc2ccc(F)cc2)cc1
  A = -1.9 | B = 0 | C = 3 | D = -3.0 | E = -3%

N#CC1(Nc2cccc(Cl)c2)CCCC1
  A = -5.3 | B = 13 | C = 20 | D = 1.8 | E = -8%

O=C(Cn1cnc2c(OCc3ccccc3)ncnc21)NCc1ccccn1
  A = -1.4 | B = 0 | C = 9 | D = 3.0 | E = 0%

C[C@H]1CN([C@@H](C)CO)S(=O)(=O)c2ccc(Br)cc2O[C@H]1CN(C)C(=O)c1cccnc1
  A = 1.4&-1.8 | B = 12&0 | C = 5&7 | D = 0.8&-2.7 | E = 1%

Cc1ccc(S(=O)(=O)N2C[C@@H]3[C@H]4CC[C@H](C4)[C@@H]3[C@@H](C)[C@@H]2c2ccn([Si](C(C)C)(C(C)C)C(C)C)c2)cc1
  A = 0.6 | B = 3 | C = 0 | D = 0.1 | E = 1%

CCCCCCN1C[C@H](O)[C@@H](n2cc(C3CC3)nn2)C[C@@H]1c1ccc(OC)cc1
  A = 5.5 | B = -45 | C = -78 | D = -14 | E = -4%

Cc1ccccc1N(C=O)c1ccccc1C
  A = -3.6 | B = 22 | C = 13 | D = 2.8 | E = -8%

COc1cc(/C=C(/C#N)C(=O)Nc2cc(C(F)(F)F)ccc2Cl)ccc1OCC(=O)Nc1cccc(C(F)(F)F)c1
  A = 1.6 | B = 2 | C = 2 | D = -5.3 | E = -24%

CC[C@]1(C(=O)OC)[C@H]2C(=O)N(C)C(=O)[C@H]2[C@H]2CN=C(SCC3CC3)N21
  A = 0.4 | B = 27 | C = 17 | D = 3.9 | E = 0%

Cc1ccc(S(=O)(=O)N(C)C[C@H]2OCCCC[C@H](C)Oc3ccc(NC(=O)Nc4cccc5ccccc45)cc3C(=O)N([C@@H](C)CO)C[C@H]2C)cc1
  A = 5.6&0.2 | B = 4&1 | C = 18&12 | D = 2.8&-2.3 | E = -7%

NC(CSC(c1ccccc1)(c1ccccc1)c1ccc2c(c1)OCO2)C(=O)O (configuration not stated)
  A = -2.0 | B = -52 | C = -78 | D = -16 | E = 16%

Cc1ccc(C(=O)N2CCCc3ccccc32)c(Cl)c1
  A = 2.1 | B = -20 | C = -36 | D = -12 | E = 6%

COc1ccc(S(=O)(=O)N(C)C[C@H]2Oc3cc(Br)ccc3S(=O)(=O)N([C@H](C)CO)C[C@H]2C)cc1
  A = -0.5&-2.9 | B = -20&-21 | C = -32&-33 | D = -2.1&-4.8 | E = -9%

Cc1ccc(C)c(C(=O)COC(=O)c2cc(S(=O)(=O)N3CCOCC3)ccc2F)c1
  A = -3.6 | B = -7 | C = -6 | D = 1.7 | E = -8%

COC(=O)CCC(C(=O)CN1C(=O)c2ccccc2C1=O)N1C(=O)c2ccccc2C1=O (configuration not stated)
  A = -0.1 | B = 12 | C = 16 | D = 0.8 | E = -3%

CCC[C@@H](CN1CCC[C@H]1CN1C(N)=NC[C@H]1CC(C)C)N1C[C@@H]([C@H](C)CC)N(CCc2ccc(Cl)c(Cl)c2)C1=N
  A = 25* | B = -35 | C = -79 | D = -23 | E = -8%

O=C1CC(c2ccccc2)=C(c2ccccc2)C1c1ccccc1 (configuration not stated)
  A = -2.5 | B = -13 | C = -30 | D = -4.5 | E = -3%

CCOC(=O)N(C)C[C@@H]1OCc2cnnn2CCCC(=O)N([C@H](C)CO)C[C@H]1C
  A = -0.5&0.0 | B = 3&0 | C = 1&-3 | D = -5.8&-2.7 | E = 10%

CC(=O)NC(Cc1ccccc1)C(=O)Oc1ccc2ccccc2c1 (configuration not stated)
  A = 0.7 | B = -6 | C = -3 | D = 0.2 | E = 7%

COc1ccc(OC)c(NC(=O)C(C#N)=Cc2ccco2)c1
  A = -0.1 | B = 7 | C = 18 | D = 11 | E = 11%

O=C(Nc1ccccc1)c1cc(S(=O)(=O)N2CCCCC2)ccc1N1CCOCC1
  A = 0.5 | B = -4 | C = -1 | D = 2.1 | E = 4%

O=C1CC2CC1C(C(=O)O)C2C(=O)O (configuration not stated)
  A = 0.0 | B = 8 | C = 12 | D = 0.4 | E = 0%

C[C@@H]1CN([C@@H](C)CO)C(=O)CCCn2nncc2CO[C@H]1CN(C)Cc1ccc(-c2ccccc2)cc1
  A = 4.2&5.7 | B = 1&-3 | C = -10&-15 | D = 1.1&4.9 | E = -2%

COc1ccc(OC)c(S(=O)(=O)Nc2ccccc2C(=O)N2CCCCC2)c1
  A = -3.4 | B = 4 | C = 12 | D = 2.4 | E = 7%

COc1ccc(CCc2ccnc3ccccc23)cc1
  A = -4.4 | B = -61 | C = -78 | D = -18 | E = -13%

CCCCCCN1C[C@@H](n2cc(C3CC3)nn2)[C@H](O)C[C@@H]1c1ccccc1
  A = -2.8 | B = 1 | C = 3 | D = -3.4 | E = -4%

NC(=O)C1(N2CCCCC2)CCN(C(=O)c2cc(COc3c(F)cccc3F)on2)CC1
  A = 0.2 | B = 3 | C = 0 | D = 1.6 | E = 1%

O=C1C(=Cc2ccccc2[N+](=O)[O-])Cc2ccccc21
  A = -0.3 | B = 22 | C = -7 | D = 5.5 | E = 5%

Only part of the results is shown, so the mix of outcomes need not match the whole.
